Screens as filed in PubChem.
D2 PAM: potentiates the human D2 dopamine receptor allosterically; P14416; DiscoveRx D2 beta-arrestin cells, luminescence, 90 min; 100% = 57 uM dopamine signal; potentiation, % (test concentration not listed); hit rate 0.23% among 360,000; AID 624464; active = potentiation of 50% or more; inconclusive = 30% to 50%; inactive = 30% or less;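 note: compound concentration not given in the record; tested on top of an EC20 dose of dopamine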
Target sequence (P14416 whole entry, looked up): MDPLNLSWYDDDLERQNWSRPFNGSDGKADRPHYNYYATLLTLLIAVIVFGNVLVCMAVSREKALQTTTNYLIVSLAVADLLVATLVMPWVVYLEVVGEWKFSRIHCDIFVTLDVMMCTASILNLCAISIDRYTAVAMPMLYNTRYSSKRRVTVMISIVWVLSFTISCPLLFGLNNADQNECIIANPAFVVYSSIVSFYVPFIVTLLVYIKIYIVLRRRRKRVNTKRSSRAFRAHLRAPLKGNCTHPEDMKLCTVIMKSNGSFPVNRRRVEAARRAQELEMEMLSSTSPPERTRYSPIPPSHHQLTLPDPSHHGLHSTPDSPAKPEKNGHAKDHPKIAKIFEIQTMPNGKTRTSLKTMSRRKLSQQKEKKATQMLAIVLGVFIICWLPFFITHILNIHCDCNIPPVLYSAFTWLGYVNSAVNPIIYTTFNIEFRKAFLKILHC
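D2 cells co-treated with compound plus 50 nM dopamine (EC20) for 90 min at 37 deg C to detect potentiation. Beta-arrestin recruitment was read as enzyme-fragment luminescence after 1 h at ambient temperature. Full response was set by 57 uM dopamine.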
TRPML1 ag: human mucolipin-1 channel agonism; activation, % (no concentration beside the values); AID 624414; TRPML1-expressing cells, Ca2+ dye fluorescence, FDSS; host cell line not named in the record; reference of the full effect not given here; hit rate 0.12% among 410,000; in the data active = activation above about 50%; inconclusive = about 30% to 50%; inactive = below about 30%; note: 0% is about no effect; the text of the record puts the active cut at 80%
Target sequence (Q9GZU1 whole entry, looked up): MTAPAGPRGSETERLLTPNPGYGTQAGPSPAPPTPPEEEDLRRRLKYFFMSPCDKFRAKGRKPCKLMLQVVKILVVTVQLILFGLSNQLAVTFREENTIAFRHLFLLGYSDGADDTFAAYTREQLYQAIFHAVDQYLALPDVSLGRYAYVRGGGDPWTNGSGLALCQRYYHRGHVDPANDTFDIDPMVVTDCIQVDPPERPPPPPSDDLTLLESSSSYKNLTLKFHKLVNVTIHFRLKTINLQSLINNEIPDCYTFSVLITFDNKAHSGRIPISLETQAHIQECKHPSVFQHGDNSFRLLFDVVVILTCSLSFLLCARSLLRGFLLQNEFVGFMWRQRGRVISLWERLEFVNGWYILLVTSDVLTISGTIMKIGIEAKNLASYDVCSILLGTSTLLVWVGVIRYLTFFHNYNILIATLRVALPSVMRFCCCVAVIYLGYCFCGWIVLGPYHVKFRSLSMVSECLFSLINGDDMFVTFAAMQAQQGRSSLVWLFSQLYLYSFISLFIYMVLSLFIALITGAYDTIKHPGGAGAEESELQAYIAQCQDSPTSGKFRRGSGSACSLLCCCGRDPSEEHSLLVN
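TRPML1-DL cells, Tet-induced overnight (~16 h, 37 degrees C), loaded 45-90 min at room temperature with Ca8 no-wash calcium dye plus quencher. FDSS fluorescence: 10 s baseline, compound pin-transfer, 110 s agonist read, then EC80 54-4 (4uM final) and 110 s antagonist read.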
D2 ag: human D2 receptor agonism in beta-arrestin assay; P14416; DiscoveRx PathHunter D2 beta-arrestin, luminescence, 90 min; 100% = 57 uM dopamine signal; activation, % (no concentration beside the values); hit rate 0.084% among 360,000; in the data active = activation above about 40%; inconclusive = about 15% to 40%; inactive = below about 15%; note: compound concentration not given in the record; the text of the record calls up to 30% inactive
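DiscoveRx PathHunter D2 beta-arrestin cells (2,100/well) attached overnight, then compound-stimulated 90 min at 37 C in HBSS/10 mM HEPES/0.1% Tween-20 buffer; beta-galactosidase complementation read by luminescence after 1 h at ambient temperature. Dopamine 57 uM final (EC100) as control.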
PINK1 expr mod: modulators of PINK1 expression | PINK1 immunofluorescence, high-content cytometry, 24 h | Potency, µM (titrated, usually from 76.6 µM), for inactives: at the highest dose activation (PINK1 increase), actives largely listed as activators | hit rate 0.2% among 410,000; active = well fitted activation curve with a large enough effect; inconclusive = small, poorly fitted or top-dose-only effect; inactive = flat fitted curve, though single readings scatter; cell line not stated here;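 note: potency is the fitted concentration of half-maximal effect; % of control where 0% means no effect; nearly all actives have a fitted effect of over 65% in size; a mitochondrial uncoupler was the plate control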
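PINK1 protein, normally rapidly degraded, was detected by immunofluorescence after 24 hour compound treatment of a stable cell line. Titration data (5 concentrations) came from laser-scanning cytometry, with CCCP-treated wells as controls.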
TRPML1 inh: human mucolipin-1 channel inhibition; activity change, negative = inhibition, % (test concentration not listed); TRPML1-inducible cells, Ca2+ dye fluorescence, FDSS; active compounds read low; inhibition of EC80 agonist-evoked calcium signal; hit rate 0.02% among 390,000; Q9GZU1; in the data active means activity change below about -50%; inconclusive means about -30% to -50%; inactive means above about -30%;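 note: stimulus is agonist 54-4 at its EC80 concentration; % is set by controls: 0 for no effect and ±100 for the full control effect; compound concentration not given in the record; the text of the record puts the active cut at -80%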
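Tet-induced TRPML1-DL cells loaded with Ca8 no-wash calcium dye were read kinetically on FDSS. Compound addition was followed by EC80 agonist 54-4 (4 uM final); inhibition was read over 110 s.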
Six1-Eya2 inh: inhibitors of human Six1/Eya2 interaction. hit rate 0.56% among 360,000. AID 651725. Q15475+O00167. AlphaScreen GST-Six1/His-Eya2 binding, biochemical; active compounds read low; control for the full effect not named in the record. activity change, % (test concentration not listed); in the data active = activity change below about -65%; inconclusive = about -30% to -65%; inactive = above about -30%; note: % is set by controls: 0 for no effect and ±100 for the full control effect
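Six1/Eya2 binding was read as AlphaScreen signal after compounds were pinned into GST-Six1 plus His-tagged Eya2 (5X stock 250/500 nM) in pH 8.0 Tris/NaCl/TCEP buffer, beads added, then incubated 1 h, 37 C, dark.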
An asterisk follows results filed as active; u = inconclusive; x = no result given; [ ] = dose if it differs, or a comment.

SMILES	D2 PAM	TRPML1 ag	D2 ag	PINK1 expr mod	TRPML1 inh	Six1-Eya2 inh
O=C(COC(=O)c1ccccc1NC(=O)c1ccco1)Nc1ccc2c(c1)OC(F)(F)O2	-4	-0.4	-2.3	-8.8%[38.3 µM]	-2	-6
COC(=O)[C@]1(C)N[C@H](CN(C)C(=O)Nc2ccc(OC)cc2)[C@@H]2C(=O)N(C)C(=O)[C@@H]21	2	0.0	-1.0	5.9%	-3	0
O=C(COC(=O)/C=C/c1cccs1)Nc1nc(-c2ccccc2)cs1	-4	0.0	-2.0	5.1%	-12	8
CN1CCN(S(=O)(=O)c2cccc(S(=O)(=O)c3cccc(S(=O)(=O)N4CCN(C)CC4)c3)c2)CC1	-5	-0.6	0.5	0.8%	-4	-1
COC(=O)c1ccc(C(=O)OC)c(NC(=O)CN(c2ccc3c(c2)OCO3)S(C)(=O)=O)c1	-9	0.9	3.1	u	9	-2
Cc1c(Cl)cccc1NC(=O)CSc1ccc(-c2cccnc2)nn1	-4	1.1	1.1	9.4%	5	-1
CC#CCNCc1ccccc1	-13	-0.4	-1.6	3.4%	-2	10
COC(=O)C1=C(CCc2ccccc2)NC(=O)NC1c1ccc(Cl)cc1 (configuration not stated)	-11	1.0	-2.5	1.7%	12	-4
CC(C)(C)OC(=O)[C@H](Cc1ccccc1)NC(=O)c1[nH]cnc1C(=O)Nc1ccc(Cl)cc1	-14	-0.3	-5.2	-1.8%	5	-8
COc1cc(OC)cc(C(=O)Nc2ccc3c(c2)n(C)c(=O)c(=O)n3C)c1	x	-0.1	x	1.3%	-1	x
Cc1ccc(C(=O)CCC(=O)Nc2ccc(C)cc2C)cc1	x	0.5	x	-0.4%	-11	x
CC(=O)NC(Cc1ccc(F)cc1)C(=O)NC1CCN(C(=O)Nc2ccc(F)cc2)CC1 (configuration not stated)	-11	0.1	-0.3	0.1%	-21	3
Cc1cc(C)cc(NC(=S)N2CCC(c3nc4ccccc4s3)CC2)c1	-8	1.4	-3.0	-0.8%[38.3 µM]	-10	-17
O=S(=O)(Nc1ccc2c(c1)OCCO2)c1cnc[nH]1	-13	-0.1	-2.7	0.2%	38	6
COc1ccc2c(c1)C(c1ccc(C)o1)=NNC(c1ccccc1)=N2	-9	2.1	-5.4	-1.8%	0	-3
O=c1[nH]cc(N=Cc2cc(Cl)cc(Cl)c2O)c(=O)[nH]1	-14	0.0	-5.1	0.0%	45	-2
COc1ccc(C(CNc2ccc(S(C)(=O)=O)cc2[N+](=O)[O-])N(C)C)cc1OC (configuration not stated)	-8	0.0	-6.8	0.1%	5	-9
COc1ccc(Cn2cc(C(=O)c3ccc(OC)cc3)c(=O)c3cc4c(cc32)OCCO4)cc1	x	1.8	x	-0.9%	-10	x
O=C(CC1Sc2ncnn2C1=O)Nc1ccc(Br)cc1 (configuration not stated)	-4	0.8	0.1	1.2%	15	3
CCCCC(=O)Nc1ccc(NC(=O)C(C)C)cn1	1	-0.4	-5.7	0.9%	21	0

The last 3 compounds of the part above come first, to join the parts.
SMILES	D2 PAM	TRPML1 ag	D2 ag	PINK1 expr mod	TRPML1 inh	Six1-Eya2 inh
COc1ccc(Cn2cc(C(=O)c3ccc(OC)cc3)c(=O)c3cc4c(cc32)OCCO4)cc1	x	1.8	x	-0.9%	-10	x
O=C(CC1Sc2ncnn2C1=O)Nc1ccc(Br)cc1 (configuration not stated)	-4	0.8	0.1	1.2%	15	3
CCCCC(=O)Nc1ccc(NC(=O)C(C)C)cn1	1	-0.4	-5.7	0.9%	21	0
CCc1ccccc1NC(=O)Cn1nc(C(F)(F)F)c2c1CCCC2	x	0.6	x	5.3%	10	x
Cc1coc2c(C)c3oc(=O)c(CCC(=O)N4CCC(C(=O)NCCCC(=O)O)(c5ccccc5)CC4)c(C)c3cc12	-7	-1.3	1.3	2.7%	9	u
O=C(O)CC(CC(=O)O)(C(=O)O)c1ccccc1	-7	0.7	-0.5	-0.4%	26	3
CCOc1ccc(S(=O)(=O)N(C)c2ccc(OCC(=O)Nc3nccs3)cc2)cc1	-2	1.1	0.1	3.0%	7	-18
CCCn1nnc(NC(=O)/C=C/c2cc(Br)ccc2OC)n1	-21	-1.0	-3.3	2.4%	16	1
COc1ccc(C(CNC(=O)C2CC(=O)N(Cc3ccccc3)C2)N2CCOCC2)cc1 (configuration not stated)	-4	-0.2	-2.4	-0.9%	-1	7
O=c1[nH]nc(-c2ccc(F)cc2)cc1Cc1ccc(F)cc1	-3	2.6	-1.5	-2.9%	-7	1
Cc1ccc(S(=O)(=O)N2CCCCC2)cc1NC(=O)Cc1cccs1	-4	0.3	-1.6	-0.1%	-12	0
COc1ccc(NC(=O)c2cc(-c3ccc(F)cc3OC)n[nH]2)c(OC)c1	u	-1.1	6.9	6.5%	x	-10
Cc1ccc(NC(=O)CCCn2c(=O)c3cccn3c3ccccc32)cc1C	x	2.7	x	-0.3%	-14	x

Ordered by number of heavy atoms (rising): three of the compounds above
SMILES	D2 PAM	TRPML1 ag	D2 ag	PINK1 expr mod	TRPML1 inh	Six1-Eya2 inh
O=C(O)CC(CC(=O)O)(C(=O)O)c1ccccc1	-7	0.7	-0.5	-0.4%	26	3
CCCn1nnc(NC(=O)/C=C/c2cc(Br)ccc2OC)n1	-21	-1.0	-3.3	2.4%	16	1
Cc1coc2c(C)c3oc(=O)c(CCC(=O)N4CCC(C(=O)NCCCC(=O)O)(c5ccccc5)CC4)c(C)c3cc12	-7	-1.3	1.3	2.7%	9	u

Following part
SMILES	D2 PAM	TRPML1 ag	D2 ag	PINK1 expr mod	TRPML1 inh	Six1-Eya2 inh
CC(C)Cc1nc(Nc2ccc(S(=O)(=O)N3CCCC3)cc2)c2nnn(Cc3ccccc3)c2n1	-4	-0.1	-3.4	2.4%	20	18
C=CCn1c(C)nnc1SCC(=O)NC1CC1	-2	-0.4	6.2	1.4%	8	15
CCOC(=O)Cn1c(C)[n+](C)c2cc(Cl)c(Cl)cc21	-4	0.4	-5.3	0.4%	4	1
CNc1nc2ccccc2n1/N=C/c1cccc(OC)c1OC	-23	-0.6	-2.1	1.2%[38.3 µM]	12	-10
Fc1ccccc1CSc1nnc2ccc(-c3ccncc3)nn12	-9	x	-1.3	0.9%	x	-1
CC12CCC(=O)N1C(C(=O)Nc1ccccc1F)CS2 (configuration not stated)	-13	-0.1	-4.1	-1.2%	22	2
O=[N+]([O-])c1ccc(N2CCCCCC2)c([N+](=O)[O-])c1	4	0.1	-4.0	-0.2%	0	-30
O=c1[nH]n(-c2cccc(Cl)c2)c2ncccc12	5	1.5	-1.3	9.1%[38.3 µM]	16	-11
COCC(=O)N1CCC(Oc2ccc(C(=O)NCCc3ncccc3C)cc2)CC1	-2	-1.1	-2.8	-1.7%	-6	22
COc1ccc(Oc2ccc(NC(=O)c3ccccc3C)cc2)cc1	-8	2.5	-2.2	10%	78	-6
O=C(O)c1ccccc1C(=O)Nc1ccc(S(=O)(=O)Nc2ccc(F)cc2)cc1	-1	-0.7	0.9	2.8%	-5	-4
CCCC(=O)Nc1nnc(SCc2cc(=O)n3ccccc3n2)s1	x	0.7	x	-8.7%	-11	x
NC(=O)CSc1nnc(-c2ccc(S(=O)(=O)N3CCCC3)cc2)n1CC1CCCO1 (configuration not stated)	12	2.3	-0.6	5.4%[38.3 µM]	-8	3
O=C(Cc1ccc(-n2cccc2)cc1)NCc1ccccc1Cl	-11	0.4	-2.2	4.9%	19	-11
CCCNC(=O)c1c(CSc2ccc(Cl)cc2)noc1C(=O)NCc1ccccc1	-9	7.3	-2.8	3.4%	60	23
Cc1ccc(C)c2c1CCC(=Cc1ccccc1[N+](=O)[O-])C2=O	-6	-0.5	-3.0	4.7%	-2	-23
CCC(C(=O)NCc1ccc(F)cc1)N(Cc1ccco1)C(=O)c1snc(C(N)=O)c1N (configuration not stated)	8	5.3	-0.7	0.9%[38.3 µM]	23	1
Cc1cc(C)cc(C(=O)NC(=S)Nc2cccnc2)c1	-9	0.0	-8.5	-0.9%	-15	0
Cc1c(C=O)c2ccccn2c1C(=O)c1ccccc1	-3	4.7	-2.7	-2.3%	16	3
O=C(OCC(=O)N1CCOCC1)c1cnc(Cl)c(Cl)c1	-1	0.3	-3.4	1.3%	-2	-9
OCCNc1nc2ccccc2n1-c1ncnc2sc3c(c12)CCC3	-9	-0.5	-2.0	2.8%	14	3
O=C(NNc1ccccc1)C(=O)N1CCCCC1	10	-0.1	-3.7	5.4%	2	2
Cc1ccccc1Nc1nc(N)nc(CN(C)c2ccccc2)n1	-15	-0.4	-0.6	1.7%	1	-14
CCc1cc(CNC(=O)CC2C(=O)NCCN2CC2CCCCC2)on1 (configuration not stated)	-10	-0.4	-2.7	0.6%	7	-1
CCN(CC)C(=O)c1sc(NC(=O)c2ccc(C)c([N+](=O)[O-])c2)c(C#N)c1C	-7	0.6	-0.9	25%	-15	2
Cc1nnc(-c2ccc(Cl)cc2)[nH]c1=O	7	-0.1	0.2	-3.2%	29	2
CCOc1ccc(OCCN(C)Cc2ccccc2)cc1	-24	1.6	-0.1	-4.5%	3	-4
CN(c1ccc(C(=O)NCc2ccccc2)cc1)S(C)(=O)=O	-6	-0.1	-1.6	-2.3%[38.3 µM]	-8	-1
C=CCOc1ccc(C2C3=C(CCCC3=O)N(CC(=O)O)C3=C2C(=O)CCC3)cc1OCC	-4	0.1	7.9	-0.3%	11	3
CCOc1ccc(C(C)(N)C(=O)O)cc1 (configuration not stated)	-12	-0.1	-3.1	-1.0%	5	-1
CC(CCc1ccc(O)cc1)NC1c2ccccc2-c2ccccc21 (configuration not stated)	-54	x	-1.4	16%	x	-1
Nc1ccc2ccccc2c1C(=O)c1ccccc1	-5	0.6	-6.8	11%	21	5
Cc1cc(C(C#N)c2cccc(Cl)c2)n2ncnc2n1 (configuration not stated)	-13	-1.3	-5.1	-0.3%	-10	-21
O=C(COc1ccc(S(=O)(=O)NC2CCCCC2)cc1)NCC1CCCO1 (configuration not stated)	-7	0.3	-1.3	3.1%[38.3 µM]	-7	1
O=C(/C=C/c1cccc(Cl)c1Cl)OCC(=O)N1CCOCC1	22	0.0	-3.7	-1.3%	-8	u
CC(=O)C1=C(C)OC(N)=C(C#N)C1c1ccco1 (configuration not stated)	-2	1.2	0.4	-0.6%	2	-4
Cc1cccc(Nc2cc(C)nc3nc(-c4ccccc4)nn23)c1	x	0.4	x	2.4%	-11	x
Cc1ccc(S(=O)(=O)N2CCC(C(=O)OCC(=O)N(CC(C)C)C3CCS(=O)(=O)C3)CC2)cc1C (configuration not stated)	16	-0.8	-3.1	2.6%	-20	4
CC1CN(C(=S)Nc2cccc(Cl)c2)CC(C)O1 (configuration not stated)	-2	0.5	-0.2	6.9%	49	1
CCOc1ccc(CN(C)C(=O)CCNC(=O)c2ccco2)cc1	-2	-0.3	4.3	-0.5%	-15	1
Cc1ccc(CN2CCN(C(=O)c3ccncc3)CC2)cc1	-8	-0.3	-4.0	-0.9%	9	-2
Cc1nn(Cc2c(Cl)cccc2Cl)c(C)c1NC(=O)CCCn1nc(C)c([N+](=O)[O-])c1C	-7	-0.4	-4.6	0.4%	-12	1
